GIRK2 activ = GIRK2 channel activation. P48051. HEK293-GIRK2 thallium flux, Thallos fluorescence. calls only for hits at 25 µM. hit rate 0.05% among 63,000. AID 1259325;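 active = among the strongest 0.2% of first-round signals and kept after retests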;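 also: first round at about 10 µM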
Target sequence (P48051 whole entry, looked up): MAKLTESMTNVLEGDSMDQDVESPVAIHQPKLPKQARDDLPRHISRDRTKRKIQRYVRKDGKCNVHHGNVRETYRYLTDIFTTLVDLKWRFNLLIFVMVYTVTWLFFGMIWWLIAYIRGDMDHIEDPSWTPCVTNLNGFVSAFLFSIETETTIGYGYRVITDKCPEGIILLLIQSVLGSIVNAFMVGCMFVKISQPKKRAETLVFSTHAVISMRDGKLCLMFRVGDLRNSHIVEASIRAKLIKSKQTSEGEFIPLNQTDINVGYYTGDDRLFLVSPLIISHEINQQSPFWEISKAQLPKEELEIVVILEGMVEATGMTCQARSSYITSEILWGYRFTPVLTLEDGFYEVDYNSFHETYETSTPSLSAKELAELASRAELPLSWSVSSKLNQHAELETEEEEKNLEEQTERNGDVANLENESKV
Calls only; i = inactive.

GIRK2 activ,smiles
i,COc1ccc(Cl)cc1NC(=O)CSc1nccn1-c1cccc(C(=O)NCc2ccco2)c1
i,CCC(C(=O)N1CCN(Cc2nnnn2-c2cccc(F)c2)CC1)c1ccccc1 (centres undefined)
i,O=C(c1c[nH]c2ccccc12)N1CCC(Cn2ccnc2)CC1
i,COc1ccc(CNC(=O)c2nnn(Cc3nc(-c4ccccc4)oc3C)c2N)cc1
i,COc1ccc(NC(=O)c2nnn(Cc3ccc(C)cc3)c2N)cc1OC
i,COc1ccc(CNC(=O)Cc2nnc(-c3sccc3C)o2)cc1OC
i,Cn1nc(-c2ccc(F)cc2)cc1C(=O)NCC(O)c1ccc2c(c1)CCO2 (centres undefined)
i,Cc1noc(-c2cccnc2SCC(=O)NCc2ccc3c(c2)OCO3)n1
i,COc1ccc(-c2nc(-c3cn(-c4ccc(F)cc4)nn3)no2)cc1OC
i,CCc1cc(S(=O)(=O)N2CCN(C(=O)c3ccco3)CC2)ccc1OC
i,O=C(C1CC=CCC1)N1CC(c2nc(-c3cccnc3)no2)C1 (centres undefined)
i,CC(=O)CC1(O)C(=O)N(Cc2ccc(C)cc2)c2c(C)cccc21 (centres undefined)
i,CCOCCn1c(=NC(=O)c2cc(C)no2)sc2cc(C(=O)OC)ccc21
i,Cc1ccc(-n2nnc(-c3nc(C)c(C(=O)NCc4ccccn4)s3)c2C)cc1C
i,CCOc1ccc(CC(=O)NCCc2cc(C)no2)cc1
i,COc1ccccc1CCNS(=O)(=O)c1c(C)n(C)c(=O)n(C)c1=O
i,CCOC(=O)c1oc2cc(OCC(N)=O)ccc2c(=O)c1-c1ccc(OC)c(OC)c1
i,O=C(NC1CCN(C(=O)c2cn(-c3ccc(F)cc3)nn2)CC1)c1ccco1
i,O=S1(=O)N=CNc2ccc(S(=O)(=O)N3CCOCC3)cc21
i,COc1cc(Cl)c(S(=O)(=O)NCCN2CCOCC2)cc1Cl
i,COc1ccc(-c2coc3c(C)c(OCCN4CCN(CCO)CC4)ccc3c2=O)cc1
i,O=C(NCCC(O)c1ccoc1)c1ccccc1Cl (centres undefined)
i,O=C(Nc1cccc(Cl)c1)N1CCN(c2ccc(-c3ccc4c(c3)OCO4)nn2)CC1
i,COc1cc(/C=C2\SC(=S)N(c3cccc(O)c3)C2=O)ccc1OCC(=O)O
i,O=S(=O)(c1ccc(OC(F)(F)F)cc1)N1CC(c2nc(-c3cccs3)no2)C1

The list goes on; it opens with the 3 that closed the last part.
GIRK2 activ,smiles
i,O=C(Nc1cccc(Cl)c1)N1CCN(c2ccc(-c3ccc4c(c3)OCO4)nn2)CC1
i,COc1cc(/C=C2\SC(=S)N(c3cccc(O)c3)C2=O)ccc1OCC(=O)O
i,O=S(=O)(c1ccc(OC(F)(F)F)cc1)N1CC(c2nc(-c3cccs3)no2)C1
i,O=C(CC1CCCCC1)N1CCOCC1CO (centres undefined)
i,Cc1ccc(C)c2sc(N(CCCn3ccnc3)C(=O)c3ccc(F)cc3)nc12
i,Cc1nc(Nc2ccc(NC(=O)c3ccc(S(=O)(=O)N(C)C)cc3)cc2)cc(-n2cccn2)n1
i,COc1ccc(-n2nnc(C(=O)N3CCN(c4ccccc4)CC3)c2-c2cccnc2)cc1
i,CCc1ccc(-n2c(-c3ccccc3)cn3c4c(=O)n(CC(C)=O)c(=O)n(C)c4nc23)cc1
i,CC1CC(C)CN(c2nccn3c(=O)n(CC(=O)Nc4ccc(F)cc4)nc23)C1 (centres undefined)
i,Cn1nc(N2CCC(C(=O)Nc3ccc(S(=O)(=O)Nc4ncccn4)cc3)CC2)ccc1=O
i,COc1cccc2cc(C(=O)NCC3(c4ccc(F)cc4)CC3)c(=O)oc12
i,COc1ccccc1-c1coc2c3c(ccc2c1=O)OCN(C1CCS(=O)(=O)C1)C3 (centres undefined)
i,Cc1cc(C(=O)NCC(O)(c2ccco2)C2CC2)c(C)o1 (centres undefined)
i,O=C(NCC(O)(c1ccccc1)C1CC1)Nc1ccc(Cl)c(Cl)c1 (centres undefined)
i,NC(=O)C1CCN(C(=O)CCCSc2ccc(NC(=O)c3ccc(F)cc3)nn2)CC1
i,Cc1cc(C(F)(F)F)nc(CCNS(=O)(=O)c2ccc(F)c(Cl)c2)n1
i,Cn1nc(CNC(=O)C2(c3ccc(Cl)cc3)CCCC2)c2c1CCCC2
i,Cc1c(C(=O)N2CCC(Oc3ccc(C(F)(F)F)cn3)CC2)cnn1-c1ccccc1
i,COc1ccc([C@@]2(O)c3c(ccc(CC=C(C)C)c3O)NC(=O)[C@@H]2OC)cc1
i,N#C/C(C(=O)NCc1ccco1)=C1/N=C(NC(=O)c2ccc([N+](=O)[O-])cc2)c2ccccc21
i,CSc1ccc(-c2noc(-c3nnn(Cc4nc(-c5cccc(Cl)c5)oc4C)c3C)n2)cc1
i,O=C(Cc1csc(SCc2ccncc2)n1)NCc1ccc(F)cc1
i,CS(=O)(=O)N1CCC(C(=O)N2CCN(CC(=O)c3cccs3)CC2)CC1
i,CC1CCCC(C)N1CC(O)Cn1cc(/C=N\NC(=O)c2ccncc2)c2ccccc21 (centres undefined)
i,CCOc1cc(NC(=O)COc2ccc(C)c(C)c2)ncn1
i,COc1ccc(Cl)cc1C(=O)N1CCN(c2cc(-n3cccn3)ncn2)CC1
i,CC(=O)C1(O)CCC2C3CC(C)C4=CC(=O)C=CC4(C)C3(F)C(O)CC21C (centres undefined)
i,CCC(C)Nc1nc(Nc2ccc(C)cc2)c2n[nH]nc2n1 (centres undefined)
i,Cn1nnn(-c2ccc(NC(=O)Cn3c(=O)oc4ccccc43)cc2)c1=O
i,Cc1ccc(S(=O)(=O)NCC2(c3cccs3)CCOCC2)c(C)c1
i,COc1ccc(OC)c(NC(=O)C2(c3cccs3)CCCC2)c1
i,O=C1CC(C(=O)Nc2nc3ccccc3[nH]2)c2ccccc21 (centres undefined)
i,CC(=O)Cn1c(=O)c2c(nc3n(C(C)c4ccccc4)c(C)cn23)n(C)c1=O (centres undefined)
i,CCOC(=O)c1oc2cc(O)c(CC)cc2c(=O)c1-c1ccccc1Cl
i,Cc1noc(C)c1CCC(=O)N1CCN(CC(O)c2ccco2)CC1 (centres undefined)
i,Cn1c(=O)c2c(nc(N3CCCCCC3)n2CC(O)COc2ccc(Cl)cc2)n(C)c1=O (centres undefined)
i,O=C(C1CCCN(S(=O)(=O)c2ccccc2)C1)N(CCn1cccn1)c1nc2ccccc2s1 (centres undefined)
i,COc1ccc(N2CCC(CNS(=O)(=O)c3cccc(Cl)c3)C2)cc1 (centres undefined)
i,COc1ccc2oc(-c3ccccc3)c(C(=O)O)c2c1
i,CCOc1ccc(-c2ccc(N3CCN(C(=O)NCc4ccccc4)CC3)nn2)cc1
i,Cc1ccc(N2CN(Cc3cc(=O)n4ccccc4n3)S(=O)(=O)c3cccnc32)cc1
i,O=C(c1ccc2nsnc2c1)N(CCc1cccs1)Cc1ccoc1
i,O=C(C(=O)N1CCN(Cc2nnnn2-c2ccc(F)cc2)CC1)c1c[nH]c2ccccc12
i,O=C(CN1CCN(c2ccc(F)c(F)c2)C1=O)NCc1ccc2c(c1)OCO2
i,O=C(Nc1nnc(-c2cccs2)o1)c1cccc(Cl)c1
i,COc1ccc(F)cc1S(=O)(=O)NCCn1nc(-c2ccc(Cl)cc2)ccc1=O
i,CCc1ccc(S(=O)(=O)N2CCCC(c3nnc(C(F)(F)F)o3)C2)s1 (centres undefined)
i,CCOc1ccc(NC(=O)c2sccc2S(=O)(=O)N(C)c2ccc(CC)cc2)cc1
i,CCOC(=O)c1oc2ccccc2c1NC(=O)C1CCN(S(=O)(=O)c2ccc(Cl)cc2)CC1
i,O=c1c2sccc2n(Cc2nc(-c3cccc(Br)c3)no2)c(=O)n1Cc1ccccc1
i,O=C(NCc1ccc(Cl)cc1)N1CCC(Oc2nc3c(F)cccc3s2)CC1
i,COc1ccc(NC(=O)c2nnn(-c3ccc(Br)cc3)n2)cc1Cl
i,COc1ccc(-c2ncncc2-c2ccccc2)c(O)c1

2 compounds drawn at random from the list so far:
GIRK2 activ,smiles
i,CC(=O)Cn1c(=O)c2c(nc3n(C(C)c4ccccc4)c(C)cn23)n(C)c1=O (centres undefined)
i,Cc1noc(C)c1CCC(=O)N1CCN(CC(O)c2ccco2)CC1 (centres undefined)

Compounds shown so far with a COOH group (two):
GIRK2 activ,smiles
i,COc1cc(/C=C2\SC(=S)N(c3cccc(O)c3)C2=O)ccc1OCC(=O)O
i,COc1ccc2oc(-c3ccccc3)c(C(=O)O)c2c1

Later entries.
GIRK2 activ,smiles
i,O=C(Cc1ccc(Cl)cc1)Nc1ccc(N2CCCS2(=O)=O)cc1
i,COc1cc(OC)cc(C(=O)Nc2nc(-c3cc4ccccc4o3)cs2)c1
i,CC(=O)Nc1ccc2c(c1)C(=O)N1CCCCC1CCO2 (centres undefined)
i,COc1cccc(-c2cc(=O)c3ccccc3o2)c1N
i,O=C(C1CCN(c2ncnc3c2sc2ncccc23)CC1)N1CCCCC1
i,COc1ccc(N2CC(O)=C(c3nc4ccccc4[nH]3)C2=N)cc1OC
i,O=C(Nc1cccnc1)C(c1ccccc1)n1cccc1 (centres undefined)
i,CCCn1c(=O)c2sc(N3CCCC3)nc2n(CC(=O)NCc2cccc(OC)c2)c1=O
i,COc1ccc(OC)c2sc(N(CCN(C)C)C(=O)c3ccnn3C)nc12
i,O=c1oc2ccccc2n1CCCOc1ccccc1Cl
i,O=C(CSc1nnc2scc(-c3ccccc3)n12)Nc1nsc(-c2ccc(Cl)cc2)n1
i,CCOc1ccc(NC(=O)Cn2cc(-c3nc(-c4ccc(OC)cc4)no3)ccc2=O)cc1
i,Cc1csc(C(C#N)C(=O)CN2CCC(Cn3c(COc4ccccc4)nc4ccccc43)CC2)n1 (centres undefined)
i,COc1ccc(S(=O)(=O)N2CCC3(CC2)NC(=O)N(Cc2ccccc2)C3=O)cc1
i,O=C(CSc1nc(-c2ccccc2)cs1)NC1CCS(=O)(=O)C1 (centres undefined)
i,Cc1cc(NC(=O)/C=C\c2ccc3c(c2)OCO3)n(-c2nc3c(cnn3-c3ccccc3)c(=O)[nH]2)n1
i,Cn1c(SCC(=O)c2ccccc2)nc2c1c(=O)n(Cc1ccccc1)c(=O)n2C
i,COCc1nn2c(c1-c1ccccc1)NC(=O)C2CC(=O)Nc1cc(Cl)ccc1OC (centres undefined)
i,COc1ccc(CNC(=O)Cn2cnc3c(-c4ccncc4)nsc3c2=O)cc1
i,Cc1nc(-c2nnc(NC(=O)Cc3cccs3)o2)cs1
i,CCCNC(=O)c1nnn(-c2ccc(Br)cc2)c1C(C)C
i,COc1ccc(Cl)cc1NC(=O)c1ccc2nccnc2c1
i,Cc1ccc(S(=O)(=O)Cc2nc(-c3ccccc3Br)no2)cc1
i,O=C(c1cccc(-n2cnnn2)c1)N1CCN(c2cc(N3CCCCC3)ncn2)CC1
i,O=C1CCSCC(C(=O)N2CCC(Cc3ccccc3)CC2)N1 (centres undefined)

A draw from above in order of length of the SMILES, highest first:
GIRK2 activ,smiles
i,Cc1cc(NC(=O)/C=C\c2ccc3c(c2)OCO3)n(-c2nc3c(cnn3-c3ccccc3)c(=O)[nH]2)n1
i,Cc1csc(C(C#N)C(=O)CN2CCC(Cn3c(COc4ccccc4)nc4ccccc43)CC2)n1 (centres undefined)
i,COc1ccc(N2CC(O)=C(c3nc4ccccc4[nH]3)C2=N)cc1OC
i,O=C(CSc1nc(-c2ccccc2)cs1)NC1CCS(=O)(=O)C1 (centres undefined)
i,CC(=O)Nc1ccc2c(c1)C(=O)N1CCCCC1CCO2 (centres undefined)
i,O=C(Nc1cccnc1)C(c1ccccc1)n1cccc1 (centres undefined)

The listing continues:
GIRK2 activ,smiles
i,O=c1c2nc(-c3ccc(Br)cc3)cn2ccn1-c1ccc(F)cc1
i,COc1cc(C(=O)Nc2cc3c4c(c2)CCC(=O)N4CCC3)cc(OC)c1OC
i,O=S(=O)(/C=C/c1ccccc1)N1C2CCC1CN(Cc1ccccc1)C2
i,CC(C)CCCCCCCCCCCC(=O)OCC(O)CO (centres undefined)
i,O=C(c1cccs1)N1CCN(Cc2nc(-c3ccc(F)cc3)cs2)CC1
i,CC(NC(=O)C(=O)NCC(C)(O)c1ccco1)c1ccccc1 (centres undefined)
i,Cc1cc(-c2nnc(NC(=O)c3cc(Cl)sc3Cl)o2)c(C)o1
i,COc1cccc(COc2cn(C)c(C(=O)NCCc3ccccc3OC)cc2=O)c1
i,Cc1ccc(S(=O)(=O)N2CCN(C(=O)C(C)Cn3nc(C)nc3C)CC2)cc1 (centres undefined)
i,CS(=O)(=O)CCNCc1ccoc1-c1ccc2ncnc(Nc3ccc(OCc4ccccc4)cc3)c2c1
i,Cc1noc(C)c1CNC(=O)c1nnn(-c2ccccc2F)c1-c1ccccn1
i,Cc1ccc(OCC(O)Cn2c(NCCO)nc3c2c(=O)[nH]c(=O)n3C)cc1C (centres undefined)
i,O=C(Nc1cccc(N2CCCC2=O)c1)c1ccc([N+](=O)[O-])o1
i,COc1ccc(-c2ccc(=O)n(CCNS(=O)(=O)c3cc(C)cc(C)c3)n2)cc1
i,C=CCNc1oc(-c2ccc(S(=O)(=O)N(C)C)cc2)nc1C#N
i,Cc1ccc2c(Nc3ccc(F)cc3)c(-c3nc(C)no3)cnc2n1
i,Cc1cc(C)n(-c2ccc(=O)n(CCNC(=O)CSc3nnnn3C)n2)n1
i,C#CCCNC(=O)NCc1cccc2ccccc12
i,COc1ncccc1C(=O)N1CCCSCC1CN1CCCC1 (centres undefined)
i,O=C(NC1CCN(c2ccc(-c3ccccc3F)nn2)C1)c1ccn[nH]1 (centres undefined)
i,Cc1ccc(=O)n(C(C)C(=O)Nc2ccccn2)n1 (centres undefined)
i,O=S(=O)(c1ccc2c(c1)CCN2)N1CCOCC1
i,COc1ccc2c(c1)c(=O)c(S(=O)(=O)c1ccccc1)cn2CC(=O)Nc1ccc(Cl)cc1
i,CCOCCn1c(=O)c2c(nc3n2CC(C)CN3c2cccc(OC)c2)n(C)c1=O (centres undefined)
i,COCCN(CCOC)c1cc(-c2ccccc2)ncn1
i,CCCNC(=O)Cn1nc(-c2cccs2)c2sc(N3CCOCC3)nc2c1=O

Source: PubChem (Vanderbilt University)

A portion of the library. The share of hits here may be higher or lower than overall.
